Rango dissoc inh: qHTS Assay for Inhibitors of RanGTP induced Rango (Ran-regulated importin-beta cargo) - Importin beta complex dissociation; Snurportin-1 (Homo sapiens) + GTP-binding nuclear protein Ran (Homo sapiens) + Importin …; Biochemical FRET Rango-importin beta, RanGTP-induced dissociation; Potency, µM (titrated, usually from 46.1 µM), for the others: at the highest dose activity change, negative = inhibition; 340,000 compounds, 0.071% hits; AID 540253, 2011; active means falling FRET ratio curve, often poorly fitted, with flat reads before Ran was added; inconclusive means other falling curves, or compound fluorescence or quenching; inactive means flat or rising ratio curve;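 also: potency is read from the fitted curve at half-maximal effect; % of control where 0% means no effect; nearly all actives have a fitted effect of over 45% in size; -100% = wells without RanGTP and RCC1; the record marks most hits as doubtful in a second field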
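Rango (0.1 uM)–importin beta (0.25 uM) complex; RanGTP-RCC1 trigger; 45 min RT; CFP/YFP FRET read.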
Rango-impB inh: qHTS Assay for Inhibitors of Rango (Ran-regulated importin-beta cargo) - Importin beta complex formation. Importin subunit beta-1 (Homo sapiens), Q14974. Rango CFP/YFP FRET sensor + importin beta, 45 min. Potency, µM (top dose mostly 92.2 µM), inactives show top-dose inhibition of complex formation. 340,000 compounds, 0.031% hits. AID 540263, 2011; active = rising FRET ratio curve, often small or poorly fitted; inconclusive = mostly compound fluorescence or quenching in the first reads; inactive = flat curves in all reads;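 also: potency is read from the fitted curve at half-maximal effect; 0% = DMSO wells and 100% = buffer wells lacking importin beta; nearly all actives have a fitted effect of over 15% in size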
Target sequence (Q14974 whole entry, looked up): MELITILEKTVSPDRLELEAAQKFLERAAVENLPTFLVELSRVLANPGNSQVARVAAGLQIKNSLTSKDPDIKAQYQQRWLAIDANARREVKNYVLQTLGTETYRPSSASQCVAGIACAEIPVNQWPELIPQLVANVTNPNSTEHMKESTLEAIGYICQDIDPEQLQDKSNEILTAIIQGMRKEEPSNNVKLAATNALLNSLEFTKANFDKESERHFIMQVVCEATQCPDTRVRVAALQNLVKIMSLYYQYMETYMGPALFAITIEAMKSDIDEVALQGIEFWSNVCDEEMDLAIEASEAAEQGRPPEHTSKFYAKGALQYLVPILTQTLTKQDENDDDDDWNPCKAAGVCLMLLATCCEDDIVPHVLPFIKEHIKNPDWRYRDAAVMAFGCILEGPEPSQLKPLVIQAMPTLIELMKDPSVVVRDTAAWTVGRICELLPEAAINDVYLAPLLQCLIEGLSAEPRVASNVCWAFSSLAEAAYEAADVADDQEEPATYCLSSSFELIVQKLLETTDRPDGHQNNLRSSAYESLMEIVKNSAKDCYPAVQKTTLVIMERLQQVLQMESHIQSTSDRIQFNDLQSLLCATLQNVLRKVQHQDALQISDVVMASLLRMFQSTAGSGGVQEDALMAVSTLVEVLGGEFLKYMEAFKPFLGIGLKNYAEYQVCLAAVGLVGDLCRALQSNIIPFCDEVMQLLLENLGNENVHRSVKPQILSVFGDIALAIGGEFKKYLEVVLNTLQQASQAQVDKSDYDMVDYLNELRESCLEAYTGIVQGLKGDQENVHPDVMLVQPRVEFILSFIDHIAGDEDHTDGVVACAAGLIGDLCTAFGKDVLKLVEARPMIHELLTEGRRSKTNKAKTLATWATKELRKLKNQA
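Inhibition scored from the CFP 486 nm/YFP 530 nm FRET ratio 45 min after adding 0.125 microM importin beta to 50 nM Rango biosensor preincubated 5 min with compound (room temperature, PBS with DTT, Tween-20, BSA). No-importin wells as positive control.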
GLA inh pH 4.5: qHTS Assay for Inhibitors of Human alpha-Galactosidase at pH 4.5; Alpha-galactosidase A (Homo sapiens), P06280; purified enzyme, 4-MU-alpha-Gal fluorescence, pH 4.5; activity change, negative = inhibition, % at 105 µM; 230,000 tested, under 10 active; AID 1467, 2008; inconclusive = small, poorly fitted or top-dose-only inhibition, or a rising curve; inactive = flat fitted curve, though single readings scatter; no compound was filed as active;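 also: 0% = full activity with enzyme and -100% = basal without enzyme; dose as in the result columns while the protocol names 77 µM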
miR-21 reporter: qHTS Assay for Modulators of miRNAs and/orActivators of miR-21; HeLa miR-21 FLuc reporter, luciferase, 48 h; Potency, µM (top dose mostly 38.3 µM), for inactives: at the top dose reporter change, positive = more light; 340,000 tested, under 10 active; AID 2288, 2010; active = well fitted rising curve with a large enough effect; inconclusive = small, poorly fitted or top-dose-only effect; inactive = no such curve, though single readings can be large or run the other way;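 also: % of control where 0% means no effect; miR-21 action dims this reporter so a rising signal means less miR-21 action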
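Luminescence from a firefly luciferase reporter carrying a miR-21 binding site downstream, stably expressed under a CMV promoter in HeLa cells that make miR-21 endogenously, reports miRNA modulation after 48 h compound exposure up to approximately 40uM final.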
The depositor's hits bear a star; ? = inconclusive; / = no result given; [ ] = dose if it differs, or a comment.

smiles	Rango dissoc inh	Rango-impB inh	GLA inh pH 4.5	miR-21 reporter
O=C1OCCC1Sc1nnnn1-c1ccc(Cl)cc1 (stereo not drawn)	-1.9%	4.0%	2.9	7.9%
CC(C)C1/C(=N/O)CC(c2ccccc2)NC1c1ccccc1 (stereo not drawn)	2.9%	7.5%	-22.2	9.2%
C=CCn1c(SCC(=O)c2c(C)[nH]c3ccccc23)nnc1-c1ccncc1	-14.9%	-0.3%	0.1	-1.2%
Cc1ccn(CC(=O)N2CCCC(Nc3ccc(F)c(F)c3)C2)n1 (stereo not drawn)	-1.1%	3.2%	/	-0.5%
COc1ccc(CCNC(=O)C23CN(Cc4ccccc4)CC2C(c2ccc([N+](=O)[O-])cc2)=NO3)cc1 (stereo not drawn)	13.0%	0.2%	-21.1	4.0%
O=c1[nH]c2ccccc2nc1C(F)(F)F	-12.4%	-0.1%	20.9	17.2%
Cc1c(NS(=O)(=O)c2ccc(Br)s2)c(=O)n(-c2ccccc2)n1C	0.3%	2.5%	0.3	-0.3%
CC1CCc2cc(F)ccc2N1S(=O)(=O)c1ccc(Cl)nc1 (stereo not drawn)	0.1%	3.9%	-3.1	3.4%
CCCCn1c(-c2csc(CC)c2)n[nH]c1=S	-9.5%	2.9%	4.1	-0.8%
O=C(CC(SCCO)c1ccc2c(c1)OCO2)c1cccs1 (stereo not drawn)	1.8%	?	3.9	-22.7%
O=C(O)c1ccc(/C=C/c2nc3sc4c(c3c(=O)[nH]2)CCC4)cc1	?	?	-0.4	-0.1%
O=C(CN1C(=O)C(=O)N(CCC2=CCCCC2)C1=O)c1c[nH]c2ccccc12	1.5%	?	/	/
O=C(CCCCCNC(=O)N1CCn2c1nc1ccccc12)N[C@H](C(=O)O)c1ccccc1	-7.6%	0.6%	/	-0.8%
COc1cccc(CC2(CO)CCN(C(=O)NCCc3ccccc3)CC2)c1	24.9%	5.4%	3.0	10.2%
COC(=O)C(C#N)C(=C1C(=O)CC(C)(C)CC1=O)c1ccc(O)cc1 (stereo not drawn)	1.1%	-2.7%	5.8	-6.2%
O=C(/C=C/c1c(F)cccc1Cl)c1ccc(O)cc1	-16.8%	-3.3%	-1.8	-5.1%
COc1ccc(C2CC(C(F)(F)F)n3nc(C(=O)O)c(Br)c3N2)cc1 (stereo not drawn)	-13.1%	0.1%	-0.3	-3.5%
COc1ccccc1CNC(=O)COC(=O)c1sc(C)nc1C	-10.5%	-1.2%	/	/
Cc1ccc(S(=O)(=O)N2CCOCC2)cc1NC(=O)Nc1ccc([N+](=O)[O-])cc1	2.4%	2.7%	/	/
Cc1ccc2nc(NC(=O)Cn3nc(C)c([N+](=O)[O-])c3C)sc2c1	3.1%	-0.2%	-12.7	-8.7%
CCS(=O)(=O)N1CCCC(C(=O)NCc2cccc(OC)c2)C1 (stereo not drawn)	6.1%	4.5%	-2.8	-1.7%
COC(C/C=C\[C@@H](O)COCc1ccccc1)OC	34.3%	-0.4%	5.6	0.4%
Cc1ccc(NC(=O)Nc2ccccc2)cc1[N+](=O)[O-]	-1.3%	-0.3%	-4.8	16.1%
Cc1ccc(CNc2oc(-c3ccco3)nc2C#N)cc1	7.0%	-0.4%	-2.3	-31.1%
CC[C@@H]1C(c2cccc(Cl)c2)=NN(c2ccc(Br)cc2)[C@H]1C(=O)N1CCOC1=O	?	?	?	/
O=C(Nc1ccc(Cl)c(Cl)c1)c1ccc2c(c1)OCO2	0.8%	7.4%	/	-16.1%
CC1CCC(=C(C#N)c2nc(-c3cc4ccccc4oc3=O)cs2)CC1 (stereo not drawn)	-4.4%	1.2%	7.9	-27.5%
NS(=O)(=O)c1ccc(CNc2ccc3ccccc3n2)cc1	-6.6%	-0.1%	/	-49.4%
O=C(c1ccc(Cl)nc1)N1CCN(S(=O)(=O)c2ccccc2)CC1	3.9%	1.3%	1.1	-1.0%
COc1ccc(CCNCc2cc(C)n(-c3ccc(OC)cc3)c2C)cc1	-11.5%	0.5%	/	2.1%

Three structures from above, arranged by molecular weight, ascending:
smiles	Rango dissoc inh	Rango-impB inh	GLA inh pH 4.5	miR-21 reporter
O=C(/C=C/c1c(F)cccc1Cl)c1ccc(O)cc1	-16.8%	-3.3%	-1.8	-5.1%
COc1ccccc1CNC(=O)COC(=O)c1sc(C)nc1C	-10.5%	-1.2%	/	/
CC1CCC(=C(C#N)c2nc(-c3cc4ccccc4oc3=O)cs2)CC1 (stereo not drawn)	-4.4%	1.2%	7.9	-27.5%

(more compounds)
smiles	Rango dissoc inh	Rango-impB inh	GLA inh pH 4.5	miR-21 reporter
Cc1cc(NC(=O)CSc2nc(Cc3ccccc3)c(C)[nH]2)no1	8.2%	-1.8%	/	6.4%
CCN1CCN(C(c2cccs2)C(C)NC(=O)c2ccco2)CC1 (stereo not drawn)	12.5%	1.3%	2.9	-2.7%
CCn1cc(/C=N\NC(=O)c2ccc(Cl)cc2)cn1	20.0%	-3.8%	5.0	-18.0%
COc1ccc(C2c3c(ncn(CCN4CCOCC4)c3=N)Oc3ccc4ccccc4c32)cc1OC (stereo not drawn)	3.6%	-3.4%	-3.8	-15.3%
C/C(=N\OCC(=O)Nc1nc2ccccc2s1)c1ccccc1	-3.8%	1.3%	-7.3	-5.6%
CNc1nc(C23CC4CC(CC(C4)C2)C3)cs1	20.0%	-0.1%	-3.1[21.1 µM]	7.8%
O=C(CNC(=O)c1ccco1)NCC(=O)OCc1cccc(C(=O)Oc2ccccc2)c1	1.6%	-5.1%	9.6	-11.9%
CCc1ccc(NC(=O)Cn2nnc(C(=O)NCc3cccs3)c2N)cc1	5.8%	0.0%	2.7[21.1 µM]	-4.2%
Cc1cccn2c(=O)c(C=C(C#N)C#N)c(N3CCN(c4cccc(Cl)c4)CC3)nc12	-5.6%	-3.1%	/	-6.2%
Cc1ccc(OCCCC(=O)Nc2ccc(Cl)c(S(=O)(=O)N3CCOCC3)c2)cc1	-12.9%	-1.3%	/	/
CC(C(=O)NCc1ccccn1)c1ccc([N+](=O)[O-])cc1 (stereo not drawn)	15.7%	7.3%	2.6	1.7%
Cc1nnc(SCC(=O)Nc2sc3c(c2C(N)=O)CCCC3)[nH]c1=O	11.3%	0.9%	-14.7	4.0%
CCC(=O)O[C@]1(C(=O)CCl)[C@@H](C)C[C@H]2[C@@H]3CCC4=CC(=O)C=C[C@]4(C)[C@@]3(F)[C@@H](O)C[C@@]21C	1.7%	-4.2%	0.2	-19.9%
O=C(Nc1ccc(S(=O)(=O)NC2=NCCCCC2)cc1)c1ccc(Cl)cc1Cl	-1.8%	-0.7%	/	/
O=C(Nc1ccccc1C(=O)NCCCN1CCOCC1)c1ccc(Cl)cc1	8.3%	-2.8%	/	4.0%
CCCn1c(SCC(=O)c2ccc3c(c2)OCCO3)nnc1-c1ccco1	29.9%	-0.2%	0.8	-5.8%
CC1CCCN(C(=O)C2CCN(CC(C)c3ccccc3)CC2)C1 (stereo not drawn)	1.2%	-5.1%	-0.6	-4.0%
COc1ccc(OC)c(/C=C2\Oc3cc(OCC(=O)N4CC(O)C[C@H]4C(=O)O)ccc3C2=O)c1 (stereo partly drawn)	?	?	/	1.7%
COC(=O)[C@H]1[C@H](c2ccccc2)[C@H](C(=O)OC)O[C@H]1c1ccccc1	9.8%	0.5%	/	/
CCOc1ccc(N(CC(=O)N2CCC(Cc3ccccc3)CC2)S(C)(=O)=O)cc1	-16.2%	2.9%	-5.2	-4.2%
O=C(CCC(=O)c1cccs1)NCc1ccccc1	-2.4%	0.8%	-2.3	-2.4%
NS(=O)(=O)c1ccc(CCN2C(=O)CCC2=O)cc1	-0.5%	0.1%	/	-0.6%
O=C(Nc1ccccc1Br)c1ccc(N2CCCC2=O)cc1	-13.1%	0.2%	/	/
O=C(/C=C/c1cc(Br)ccc1F)OCC(=O)N1CCCC1	5.5%	0.6%	/	/
O=C(N/N=C/c1ccc(Cl)cc1)c1cc2c(s1)-c1ccccc1CC2	-12.1%	-0.6%	16.3	0.1%
COc1ccc(NC(=O)N2CCCC2C(=O)NCC2CCCCC2)cc1 (stereo not drawn)	0.8%	-1.9%	/	0.9%
COc1ccc(NC(=S)Nc2ccc3nc(C)c(C)nc3c2)cc1	?	?	-6.0	-16.8%
NS(=O)(=O)c1ccc(CNC(=O)c2cc(-c3cccnc3)nc3ccc(Br)cc23)cc1	-8.0%	2.0%	/	-1.5%
CCn1cc(C(=O)O)c(=O)c2cc(F)c(N3CCN(C(=S)Nc4ccc(OC)cc4)CC3)cc21	-15.5%	0.8%	-21.7	-4.4%
CCOc1cc(C2NC(=O)NC(c3ccccc3)=C2C(C)=O)ccc1OC(C)=O (stereo not drawn)	1.8%	-1.5%	-14.0	-2.4%
Cc1c(Cl)cccc1NC(=S)NCc1ccccc1	15.9%	-0.4%	/	/
CCOc1ccc2nc3c(cc2c1)CN(CCCO)C(=NCCOC)S3	-10.3%	?	1.8	-21.0%
Cc1cc2nccc(-c3cccnc3)n2n1	3.9%	5.0%	-4.0	2.4%
C/C=C/C=C/C(=O)OCC(=O)Nc1ccc(Cl)cc1	-16.7%	-0.7%	-9.4	4.0%
O=C(c1ccc(-c2ccc([N+](=O)[O-])cc2)o1)N1CCCCC1	14.1%	-0.8%	1.5	-80.8%
COCCC(=O)N1CCC(Oc2ccc(C(=O)NC(C)CCn3cccn3)cc2)CC1 (stereo not drawn)	8.9%	-4.6%	/	-0.4%
CCOC(=O)C1CCCN(C(=O)/C=C/c2cc(OC)c(OC)c(OC)c2)C1 (stereo not drawn)	-18.1%	0.8%	1.9	-1.3%
O=C(CCOc1ccccc1)Nc1ccc(S(=O)(=O)Nc2ncccn2)cc1	-8.0%	4.5%	/	/
Cc1ccc(SCc2nc3ccccc3n2CC(=O)Nc2ccccc2)cc1	-3.8%	0.0%	-6.6	-6.3%
C#Cc1ccc(CN2CCC(N3CCC(C(=O)NCc4ccccn4)CC3)CC2)cc1	-15.0%	-0.3%	/	4.7%
Cc1cc(O)ccc1N/C=C1\CCCC1=O	-16.2%	?	-6.2	-0.6%
O=C(NNC(=O)c1csc(N2CCOCC2)n1)c1ccc(Cl)nc1	-1.4%	5.2%	/	/
COc1cc(OC)nc(NC(C)=O)n1	-4.9%	-0.4%	-4.3	-2.6%
CC1=C(C)CC(C(=O)NNC(=O)c2ccccc2)C(C(=O)O)C1 (stereo not drawn)	0.2%	-1.7%	-4.1	-32.7%
Cc1ccc(C)c(NC(=S)N/N=C/C(C)c2ccccc2)c1 (stereo not drawn)	2.5%	-0.2%	-21.6	-1.1%
Cc1cccc(N(C)S(=O)(=O)c2ccc3c(c2)C(C)(C)C(=O)N3C)c1	-1.9%	-4.6%	/	0.8%
O=C(CN1CCCCCC1)NC(c1ccccc1)c1ccccc1	13.8%	0.6%	/	-1.2%
Cc1ccc(C)c(S(=O)(=O)N2CCCN(C)CC2)c1	0.0%	-1.4%	/	0.1%
COc1cc(/C=N/Nc2ccc(C(F)(F)F)cn2)ccc1O	9.7%	1.0%	-11.4	-32.5%
Cc1ccc2cccnc2c1NC(=S)NC(=O)c1ccccc1	0.1%	-0.6%	0.6	9.0%
CCN(CC(=O)Nc1c(F)cccc1F)C(=O)CSc1nnc(-c2ccco2)n1CC	0.5%	5.8%	/	-9.1%
COc1ccccc1C(=O)Nc1ccc(S(=O)(=O)Nc2cc(C)nc(C)n2)cc1	14.5%	3.3%	8.8	-15.5%

These rows are one share of the data; count on the stated rates, not on these rows.
